Bioassay records as filed in PubChem.
MgcRacGAP Rac1: inhibition of MgcRacGAP-stimulated Rac1 GTP hydrolysis – biochemical, inorganic phosphate detection, orthogonal assay, confirmation (AID 652142); MgcRacGAP/Rac1F28L GTP hydrolysis, Biomol green phosphate; active compounds read high; test concentration not given here; none was called active though about 1 in 100 pass the limit; inhibition, %; 2,400 tested, under 10 active;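 active means inhibition over three standard deviations or about 65%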;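 further: full inhibition control lacks the GAP enzyme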
* hit, by the source's call; & = joins results of further samples. An excerpt; count on the stated rates, not on these rows.

Molecule	MgcRacGAP Rac1
CCOc1cc(/C=C2/NC(=O)N(Cc3ccccc3F)C2=O)ccc1O	9.5
CCOC(=O)C1CCCN(C2=NC(=O)/C(=C/c3ccc(O)c(OCC)c3)S2)C1 (stereo not given)	5.9
COc1cc(/C=N/NC(=O)c2ccoc2C)ccc1O	9.1
CCN1CCN(CC(=O)Nc2nc3ccccc3s2)CC1	33.1
NS(=O)(=O)c1ccc(Nc2nc(-c3ccc(O)cc3O)cs2)cc1	24.5
Cc1cccc2c(N)c3c(nc12)N(C)CC3	27.0
Clc1cccc(-c2ccc(C=Nc3ccc(N4CCOCC4)cc3)o2)c1Cl	17.9
Nc1ccc2c(c1)OC1(CCCC1)O2	23.0
Fc1ccc(CNc2ccc(N3CCN(Cc4ccccc4)CC3)cc2)cc1	8.0
O=CNc1ccc2c(c1)Cc1cccc(NC=O)c1-2	5.7
COCCNC(=O)CN(C(=O)Cn1nnc2ccccc21)c1ccc(C)cc1	28.0
CC(C)(C)c1cc(Cl)ccc1OCCOCCN1CCCC1	11.8
COc1cc(OC)c(C(=O)Nc2ccc(N(C)C)cc2)cc1OC	18.2
Cc1cc2c(=Cc3ccc(N(C)C)cc3)c3ccccc3n2[n+]1C	24.8
CCOc1cc(/C=N/NC(=O)CCCC(=O)NC2CCCCC2)ccc1O	20.5
CCNc1nc(NCC)nc(N/N=C/c2ccc(O)c(O)c2)n1	9.9
c1ccc(CC2CCN(Cc3ccccn3)CC2)cc1	27.8
CC(=O)Nc1cccc(NC(=O)c2cccc(-c3ccc(O)cc3)c2)c1	36.9
CC(C)Nc1ccc(Nc2ccnc3cc4ccccc4cc23)cc1	22.7
CC[N+](CC)(CC)CCCCOc1ccc2c(c1)C(=O)c1cc(OCCCC[N+](CC)(CC)CC)ccc1-2	30.7

(list continues)
Molecule	MgcRacGAP Rac1
CCOC(=O)C1CCN(C2=NC(=O)/C(=C/c3ccc(O)cc3)S2)CC1	31.3
COc1ccccc1N1CCN(/N=C/c2ccc(O)cc2O)CC1	34.9
O=C(NC(=S)N1CCN(c2ccc(O)cc2)CC1)c1ccco1	16.6
COc1ccc(/C=N/NC(=O)c2cnccn2)cc1O	11.5
COc1cccc(N2CC(C(=O)Oc3ccc4ccccc4c3)CC2=O)c1 (stereo not given)	27.1
CC1CCCN(CCOc2ccc3ccccc3c2Br)C1 (stereo not given)	5.4
COc1ccc(N2CCN(S(=O)(=O)c3c(C)nc4scc(C)n4c3=O)CC2)cc1	23.3
C#CCOCCOCCOCCNc1nc(N2CCN(C(=O)[C@H](CCCCN)n3cc(CN)nn3)CC2)nc(N2CCN(C(=O)[C@H](CCC(=O)O)n3cc([C@@H](N)CCCCN)nn3)CC2)n1	43.0
CCCN1C(=O)/C(=C/c2cc(C)n(C)c2C)SC1=Nc1ccc(OCC)cc1	1.7
Cc1cc(NC(=O)CN2CCN(C)CC2)no1	31.0
COc1ccc(NC2CCCN(C(=O)CCN3Cc4ccccc4C3=O)C2)cc1 (stereo not given)	32.1
COc1ccc(CN2CCC(N(CCc3ccccc3)Cc3ccccc3)CC2)c(OC)c1	34.4
CN1C(=O)NC(c2ccc(O)cc2)C2=C1CN(c1ccc(O)cc1)C2=O (stereo not given)	24.1
N#CCCN(CCC#N)c1nncs1	32.5
COc1cc(/C=N\Nc2cc(=O)n(C)c(=O)n2C)ccc1O	20.1
Clc1ccccc1-c1nc(/C=N/N2CCOCC2)c2ccccn12	18.1
Cc1cc(C(=O)c2cnc(/N=C/N(C)C)s2)cc(C)c1O	15.5
c1csc(CNc2ccc3c(c2)OCCO3)c1	25.7
N#C/C(=C\c1cccnc1)C(=O)Nc1cccc2ccccc12	27.5
Oc1ccc(/C=N/NC(=S)NCCN2CCOCC2)c(O)c1	0.8

Next results
Molecule	MgcRacGAP Rac1
O=[N+]([O-])/C=C/c1cc2ccccc2[nH]1	24.2
Cc1ccc(OCCCCNC(C)(C)C)c([N+](=O)[O-])c1	26.9
O=c1c2cc(F)ccc2sn1-c1ccccc1Cl	77.6
CN(CC(=O)NCc1ccncc1)S(=O)(=O)c1ccc(Cl)cc1	26.2
COc1cc(/C=N/NC(=O)CC2C(=O)NN=C2C)ccc1O (stereo not given)	17.2
NC(=NCCCCCCN=C(N)/N=C(\N)Nc1ccc(Cl)cc1)/N=C(\N)Nc1ccc(Cl)cc1	-105.2
COc1cc(/C=N/NC2=NCCCCC2)ccc1O	23.5
Nc1ccc(N2CCCCC2)c(Cl)c1	17.5
CC1=NN(C(N)=S)C(=O)C1N=Nc1ccc(O)cc1 (stereo not given)	26.6
C(=N\Nc1nc2ccccc2[nH]1)/c1c[nH]c2ccccc12	4.6
CC(NCc1cccc(S(=O)(=O)N(C)C)c1)c1ccc(F)cc1 (stereo not given)	23.0
Oc1ccc2ccccc2c1Br	21.5
N#C/C(=C/c1ccc(O)c(O)c1)C(=O)NCc1ccc(Cl)cc1	31.8
Cc1ccc(NC(=O)CNCCCN2CCOCC2)cc1S(=O)(=O)N1CCCCC1	11.5
COc1cc(/C=C/CN2CCC(Oc3ccc(C(=O)N4CCCC4)cc3)CC2)ccc1O	34.5
CC(OC(=O)CCN=C1NS(=O)(=O)c2ccccc21)C(=O)Nc1ccc(N(C)C)cc1 (stereo not given)	20.1
COc1ccc(CN(C)CCc2ccccn2)cc1OC	18.9
COc1ccc(NC2CCCN(C(=O)CCc3ccccc3F)C2)cc1 (stereo not given)	20.4
Cc1cc(C)c(C#N)c(SCS(=O)Cc2ccc(Cl)cc2)n1 (stereo not given)	25.6
C[n+]1c2cc(N)ccc2cc2ccc(N)cc21	44.7&43.8

Continued:
Molecule	MgcRacGAP Rac1
Nc1nc(=S)ss1	40.0
Nc1cc(C(F)(F)F)ccc1N1CCOCC1	25.7
O=C(c1ccccc1)N1CCN(C2CCCCC2)CC1	24.5
CCOC(=O)c1ccc(S(=O)(=O)Nc2nc3cc(S(=O)(=O)NC4=NCCCCC4)ccc3s2)cc1	40.2
CNc1c2cccc(C)c2nc2c(C(=O)NCCN(C)C)cccc12	51.0
COCCn1c(=S)[nH]c2sc3c(c2c1=O)CCCC3	18.8
Nc1ccc(C(=O)N/N=C/c2ccc(N3CCOCC3)s2)cc1	8.1
CCN1CCN(C(C)C(=O)NC2CCCCC2)CC1 (stereo not given)	12.8
CC(CCN1CCN(CCO)CC1)c1ccccc1 (stereo not given)	-0.9
CC(C1SC(=S)NC1=O)C1SC(=S)NC1=O (stereo not given)	44.0
S=c1[nH]nc2ccccn12	15.2
O=C(CNCc1ccc(Cl)cc1)Nc1ccc2c(c1)OCCO2	25.9
O=C1C(Cl)=C(NC(=O)c2ccccc2)C(=O)C(Cl)=C1NC(=O)c1ccccc1	91.8
O=C(O)c1c2c(nc3ccccc13)/C(=C/c1ccc(O)cc1)CCC2	19.3
COc1cc2cc(NC(C)=O)cc(NCc3ccccc3)c2cc1OC	26.4
CC(C(=O)NCC(=O)Nc1ccc(F)c(F)c1F)N1CCN(c2ccc(O)cc2)CC1 (stereo not given)	20.8
Cc1ccc(CN2CCN(Cc3ccco3)CC2)cc1	30.6
O=C(c1cccc(F)c1)N1CCN(C2CCCCC2)CC1	14.5
COc1ccc(-n2sc3ccccc3c2=O)cc1	73.7
COc1cc(/C=N/NC(=O)c2nc(-c3ccccc3)n(-c3ccccc3)n2)ccc1O	16.4

Shown with each value named: two of the compounds above
COc1cc2cc(NC(C)=O)cc(NCc3ccccc3)c2cc1OC
- MgcRacGAP Rac1: 26.4

CC(C(=O)NCC(=O)Nc1ccc(F)c(F)c1F)N1CCN(c2ccc(O)cc2)CC1 (stereo not given)
- MgcRacGAP Rac1: 20.8

Next part.
Molecule	MgcRacGAP Rac1
CSc1nc(C)c2c(n1)N(c1ccc(O)cc1)CC2	24.3
CCOC(=O)C1=C(O)/C(=C\c2ccc(O)c(OCC)c2)N=C1C	24.0
CCOc1cc(CNc2ccc(N3CCOCC3)cc2)cc(Br)c1OCC	6.7
CCCCCC(=O)Nc1cc(S(=O)(=O)O)cc2cc(S(=O)(=O)O)cc(O)c12	64.8
OCC1CCCN(C(=S)Nc2ccc(Nc3ccccc3)cc2)C1 (stereo not given)	34.4
CCOC(=O)SC1=N/C(=C\c2ccc(N(C)C)cc2)C(=O)S1	24.4
Cc1ccccc1SCC(=O)OCC(=O)Nc1ccc(N(C)C)cc1	30.8
CC(=O)Nc1ccc(OC(=O)c2cc3ccccc3oc2=O)cc1	17.4
CN(C)c1ccc(N=Cc2nc(-c3ccccc3)oc2OC(=O)c2cccc(Cl)c2)cc1	15.5
Nc1cccc2c(O)cc(S(=O)(=O)O)cc12	33.1
COc1cc(/C=N/NC(=O)CCC(=O)Nc2ccc(F)cc2)ccc1O	38.9
O=C(Nc1ccc(O)cc1)c1cccc(Oc2ccc([N+](=O)[O-])cc2)c1	-3.8
O=C(c1ccccc1F)N1CCN(Cc2ccc3c(c2)OCO3)CC1	26.1
O=C(C[n+]1ccccc1)N/N=C/c1ccc(O)cc1	14.9
CCOc1ccc(Nc2n[nH]c(=S)s2)cc1	25.9
N#CC(C#N)=C1C=CC=CN1/C(=C\c1ccco1)C(=O)c1ccc(Br)cc1	23.5
O=C(c1c(Cl)cccc1Cl)N1CCN(c2cccc3[nH]ccc23)CC1	10.5
Cc1ccc(NCCCCO)cc1C	26.0
O=C(NCCNCC(O)COc1ccc(O)cc1)N1CCOCC1 (stereo not given)	17.0
CN(C)c1ccc(N=Cc2nc(-c3ccccc3)oc2OC(=O)c2ccccc2)cc1	20.4

A few values from the results shown:
Entry of O=C(c1c(Cl)cccc1Cl)N1CCN(c2cccc3[nH]ccc23)CC1 under MgcRacGAP Rac1: 10.5
Entry of CCOC(=O)SC1=N/C(=C\c2ccc(N(C)C)cc2)C(=O)S1 under MgcRacGAP Rac1: 24.4
Entry of Cc1ccc(NCCCCO)cc1C under MgcRacGAP Rac1: 26.0

Next part.
Molecule	MgcRacGAP Rac1
CCN1CCN(CC(=O)N/N=C/c2cc(Br)cs2)CC1	9.2
C=CCSC1=NC(=O)/C(=C/c2cccs2)S1	21.8
COc1ccc(OC)c(CN2CCN(Cc3ccc(OC)c(OC)c3OC)CC2)c1	25.5
COc1cc(/C=N/n2nnnc2N)ccc1O	21.4
C/C(=C\C(=O)c1cccnc1)Nc1ccc(O)cc1	30.6
OC(CNCC1COc2ccccc2O1)COCc1cccs1 (stereo not given)	6.2
COc1cc(Sc2ccc(C)cc2)c(OC)cc1N	25.6
C#CCOCCOCCOCCNc1nc(N2CCN(C(=O)[C@H](CCCCN)n3cc([C@@H](N)C(C)CC)nn3)CC2)nc(N2CCN(C(=O)[C@H](CCCCN)n3cc([C@@H](N)CC(C)C)nn3)CC2)n1 (stereo not given in full)	57.6
COc1ccc(C2NC(=O)C(C#N)=C(S)N2c2cccc(C)c2)cc1OC (stereo not given)	29.8
O=C(N/N=C/c1ccc(O)c2ccccc12)c1cccnc1	22.4
N=C1C=CC(=C(c2ccc(N)cc2)c2ccc(N)cc2)C=C1	16.8
COc1cc(/C=C/C(=O)OCC(=O)N2CC3(C)CC2CC(C)(C)C3)ccc1O (stereo not given)	33.5
COc1cc(/C=N/Nc2cccc3cccnc23)cc(OC)c1O	11.7
CSc1nc(/C=C2\C=Nc3ccccc32)c(O)n1C	7.9
CCOC(=O)CCNC(C)C1COc2ccccc2O1 (stereo not given)	24.9
COc1ccc(NC2CCCN(C(=O)CCN3CCCC3=O)C2)cc1OC (stereo not given)	13.8
CN(C)c1ccc(NC(=O)c2cccc(N3C(=O)C4C5C=CC(C5)C4C3=O)c2)cc1 (stereo not given)	25.8
CN(C)CCCN1c2ccc(O)cc2Sc2ccc(Cl)cc21	30.1
CCOc1cc(/C=N\NC(=O)CC(=O)NCCc2ccccc2)ccc1O	28.5
C=CCn1c(SCC(=O)c2ccc(O)c(O)c2)nnc1-c1cccc(Cl)c1	29.9

More records:
Molecule	MgcRacGAP Rac1
O=C(CNc1ccc2c(c1)OCO2)N/N=C\c1ccccc1Cl	22.7
COc1ccc(O)c(/C=N/NC(=O)c2c(C)nnn2-c2nonc2N)c1	28.6
COc1ccc2c3c(cccc13)N(C)N=C2C	18.2
CC1=C/C(=C(\c2cc(C)c(O)c(Br)c2)c2ccccc2S(=O)(=O)O)C=C(Br)C1=O	1.8
Cc1ccc(-n2sc3cc(F)ccc3c2=O)c(C)c1	82.4
COc1ccc2nc(/N=C(\N)NC(=O)N3c4ccccc4Sc4ccccc43)nc(C)c2c1	24.0
Cc1cc(-c2n[nH]c(=S)n2/N=C/c2cccc(O)c2)n[nH]1	6.8
CC(NCc1ccc(S(N)(=O)=O)cc1)C(=O)N1c2ccccc2CC1C (stereo not given)	13.9
CC(C(=O)Nc1ccccc1C(F)(F)F)N1CCN(C)CC1 (stereo not given)	24.7
O=C1CCC(C2CCc3cc(O)ccc3C2)C1 (stereo not given)	11.7
CCN(CC)S(=O)(=O)c1ccc(N/N=C/c2ccc(O)cc2O)nc1	34.2
Fc1ccc(CN2CCN(C(c3ccccc3)c3ccccc3)CC2)cc1	29.5
Cc1c(NC(=O)CNCc2ccc3c(c2)OCO3)c(=O)n(-c2ccccc2)n1C	29.4
COc1ccccc1/C=C1/C(=O)N(c2ccccc2)N=C1C	22.2
O=C(Cc1coc2cc(O)ccc12)NNC(=O)c1ccc(Br)s1	15.7
Clc1nc(NCc2cccnc2)nc(N2CCOCC2)n1	34.8
C=CCOC(=O)c1cc(-c2ccc(/C=C3\C(=O)NC(=O)C(C#N)=C3C)o2)ccc1Cl	23.9
COc1cc(/C=C2/SC(=S)N(c3c(C)n(C)n(-c4ccccc4)c3=O)C2=O)ccc1O	25.1
CN1C=CC=C/C1=C(\C#N)c1nc2ccccc2[nH]1	33.1
CN(C)c1ccc(/C=N/O)cc1	29.0
CCN(CC)c1ccc(/C=N/N2CCN(Cc3ccccc3)CC2)cc1	26.3
CC(C)CC(=O)N1CCN(Cc2cccc([N+](=O)[O-])c2)CC1	22.5
COc1ccc(CN2CCN(C(=O)CC(C)C)CC2)cc1OC	6.8
